Screening results (PubChem BioAssay)
HSD17B inhib = blocks hydroxysteroid 17-beta dehydrogenase activity. Potency, µM (top dose mostly 57.1 µM), for inactives: top-dose activity change, negative = inhibition, actives largely listed as inhibitors. recombinant HSD17B10, NADH fluorescence kinetic; many of its hits are not listed in these tables. actives 7.6% (n = 75,000); active means well fitted inhibition curve with a large enough effect; inconclusive means small, poorly fitted or top-dose-only effect; inactive means no such curve, though single readings can be large or run the other way;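 further: the protocol describes HADH2 (HSD17B10) and not the HSD17B4 of the title; nearly all actives have a fitted effect of over 70% in size; most hits overshoot -100% by far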
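Activity followed as NADH fluorescence increase (ex 360, em 450 nm) every 30 seconds for 4 min, using final 90 uM beta-hydroxybutyryl CoA and 1 mM NAD+. Recombinant His-tagged enzyme, 20 nM, pH 9.0 Tris buffer, 15 min compound preincubation.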
* marks the source's active call; other numbers are inactive results; ? = inconclusive; [ ] = another dose, or the depositor's remark. On the % scale 0 is the no-effect control and ±100 the full control effect; potency means the concentration at half of the fitted maximal effect. These rows are one share of the data; count on the stated rates, not on these rows.

SMILES	HSD17B inhib
Cc1ccc2oc(=O)c3cnn(CC(=O)N4CCN(c5ccccn5)CC4)c3c2c1	?
COC(=O)[C@@H]1C[C@@]2(O)[C@H](O)[C@H](O)[C@H](O)C[C@H]2N1Cc1ccc(C(F)(F)F)cc1	-12%
CCOc1ccc(/C(O)=C2/C(=O)C(=O)N(Cc3cccnc3)C2c2ccc(N(C)C)cc2)c(C)c1 (stereo not drawn)	-5%
CC(=O)N1CCCc2cc(S(=O)(=O)N(C)CCC#N)ccc21	-4%
O=C(Nc1ccc2c(c1)oc1ccccc12)c1ccncc1	54%[activator]
O=C(c1cnccn1)N1CCC2(CCCN(Cc3ccncc3)C2)CC1	6%
O=C1CC2(CCCCC2)Oc2ccc(O)cc21	-4%
CC(C)Sc1nc2c(cnn2-c2ccccc2)c(=O)[nH]1	-3%
COCCNC(=O)c1ccc(CS(=O)(=O)c2ccc(C)cc2)o1	-2%
CN(C)c1ccc(C2C3C(=O)NC(=O)C3ON2c2ccc(Cl)cc2)cc1 (stereo not drawn)	-5%
Cc1cc(-n2nc(C)cc2C)n2ncc(-c3ccccc3)c2n1	-7%
Cc1ccc(-c2cc(C(=O)NCc3ccco3)no2)cc1	5%
CCOC(=O)c1cc2ccccc2nc1C	1%
CCCC(c1nnnn1Cc1ccccc1)N1CCC(C(N)=O)CC1 (stereo not drawn)	-10%
COc1cc(C(c2nnnn2C(C)(C)C)N2CCN(c3nc4ccccc4s3)CC2)ccc1O (stereo not drawn)	-13%
Cc1nc2cnc(Oc3ccccc3)nc2n(Cc2cccs2)c1=O	-4%
CN(C)Cc1nc2c([nH]1)c(=O)n(C)c(=O)n2C	25µM*
CN(C)S(=O)(=O)N1CCN(C(=O)c2ccccc2Cl)CC1	3%
C=CCc1cccc(/C=N/c2nc3ccccc3n2CC)c1O	3%
Cc1cc(C)n(-c2nncn2/N=C/c2ccccc2F)n1	-7%
COc1cccc2sc(Nc3nnc(-c4cccs4)o3)nc12	?
CC(C)=CCC/C(C)=C/CN(CC(C)O)CC(C)O (stereo not drawn)	11%
Cc1ccc2c(c1)cc(C)c1nnc(SCC(=O)NCc3ccco3)n12	0%
COc1ccc(Oc2coc3cc(OC(=O)N4CCOCC4)ccc3c2=O)cc1	-1%
NC(=O)c1ncn(C2OC(CO)C(O)C2O)c1N (stereo not drawn)	2%

Continued.
SMILES	HSD17B inhib
COC(=O)c1cc(Br)ccc1OC(=O)c1cccnc1	40%[activator]
COC(=O)c1ccc(C(NC(=O)OCc2ccccc2)/C(F)=C/[C@@H](C)C(=O)NCc2ccc(-c3ccccc3)cc2)cc1 (stereo partly drawn)	13%
COc1ccc(-c2noc(CCC(=O)Nc3cc(OC)ccc3OC)n2)cc1	8%
N#Cc1nc(-c2cccs2)oc1NCc1ccco1	25µM*
COCCn1c(=O)cnc2cnc(Oc3cccc(Cl)c3)nc21	12%
CCOC(=O)C1CCCN(Cc2c(Cl)cccc2Cl)C1 (stereo not drawn)	6%
C=CCN(CC=C)CC(O)Cn1c2ccccc2c2ccccc21 (stereo not drawn)	-18%
COC(=O)c1ccccc1NC(=O)COC(=O)c1cccnc1	3%
CNC(=O)Nc1ccccc1C(=O)NCc1ccccc1	13%
c1ccc(-c2nn3c(C4CCCCC4)nnc3s2)nc1	5%
CC1CN(C(=O)CSc2nnc(-c3ccc(Cl)cc3)n2C)CC(C)O1 (stereo not drawn)	0%
CCOc1ccc(N2C(=O)CC(N3CCN(C4CCc5ccccc5C4)CC3)C2=O)cc1 (stereo not drawn)	0%
COC(=O)NCC1(C)CC(NC(=O)OC)CC(C)(C)C1 (stereo not drawn)	2%
O=C(c1ccncc1)N1CCN(C(=O)c2ccncc2)CC1	4%
O=S(=O)(NCc1ccccc1)c1ccc(S(=O)(=O)N(Cc2ccccn2)Cc2ccco2)cc1	2%
COc1cccc(-c2nccc(NCc3cnc(C)cn3)n2)c1	-1%
CCS(=O)(=O)N1CCCC(C(=O)NC2CCCCC2)C1 (stereo not drawn)	3%
COC(=O)Cc1[nH]nc2c1C1(CCSCC1)C(C#N)=C(N)O2	0%
COc1ccc(S(=O)(=O)N2CC(C)N(S(=O)(=O)c3ccc(OC)cc3)CC2C)cc1 (stereo not drawn)	9%
CC(C)Cc1ccc(C(C)C(=O)N2CCOCC2)cc1 (stereo not drawn)	8%
CC(C(=O)NCC1CCCO1)n1cccc1C(=O)c1ccccc1 (stereo not drawn)	-1%
COc1cc(OC)cc(-c2cc3nc(C)c(CCC(=O)O)c(C)n3n2)c1	32µM*
CC(=O)Nc1ccc(S(=O)(=O)N(C)CC(=O)NC2=NCCS2)cc1	8%
CCCCC(=O)Nc1ncc2c(n1)CC(C)(C)CC2=O	9%
Cc1nnc(SCc2ccccc2C#N)n1-c1ccccc1	20µM*

Continued.
SMILES	HSD17B inhib
CC(OC(=O)CNC(=O)c1ccc2c(c1)OCO2)C(=O)NCCC1=CCCCC1 (stereo not drawn)	-17%
Cc1ccccc1N1C(=O)[C@@H]2Cc3ccccc3CN2C1=O	-6%
COc1ccccc1CC1(C)NC(=O)N(CC(=O)N2CC(C)OC(C)C2)C1=O (stereo not drawn)	17%
CCc1ccc2c(COC(=O)c3n[nH]c4ccccc34)cc(=O)oc2c1	?
N#Cc1ccc(CN2CCC3(CC2)CCN(C(=O)c2cccc(F)c2)CC3)cc1	10%
O=C(c1cc(-c2ccc(Cl)c(Cl)c2)on1)N1CCN(c2ccccc2)CC1	3%
Fc1ccccc1CCNc1nnnn1-c1ccccc1	-4%
CCn1nnnc1-c1ccc(OC)c(S(=O)(=O)NCc2ccccc2)c1	1%
COc1ccc(N2C(=O)CC(NCc3cccc(F)c3)C2=O)cc1 (stereo not drawn)	1%
O=C(CN1C(=O)C2CC=CCC2C1=O)Nc1nc2ccccc2[nH]1 (stereo not drawn)	?
Cc1nc(SCC(=O)Nc2ccnc3ccccc23)n[nH]1	-3%
Clc1ccc(C2=Nn3c(nnc3-c3cccnc3)SC2)s1	-4%
COc1cc(C2N(c3cc(C)on3)C(=O)C3CCCN32)cc(OC)c1OC (stereo not drawn)	1%
Cc1ccccc1OCc1nnc(SCC(=O)Nc2ccc3c(c2)OCO3)n1C	15%
Clc1ccccc1Cn1nnc2c(NCC3CC3)ncnc21	-14%
O=P1(Nn2cnnc2)C=C(c2ccccc2)OC(c2ccccc2)=C1	-6%
CCC(CO)NC(=O)c1cccc(S(=O)(=O)N2c3ccccc3CC2C)c1 (stereo not drawn)	-2%
Fc1cc(Br)ccc1Nc1nc2ccccc2n2nnnc12	?
CCOC(=O)n1c(SCC(=O)N(CC)CC)nc2ccccc21	4%
CN(C)[C@H]1C(=O)C(C(=O)NCN2CCCC2)=C(O)[C@]2(O)C(=O)C3=C(O)c4c(O)cccc4[C@@](C)(O)[C@H]3C[C@@H]12	?
CSC1=NCCN1C(=O)C(C)(C)Oc1ccc(Cl)cc1	2%
CCCCc1ccc(CC(=O)O)cc1	-7%
Cc1onc(-c2ccccc2)c1C(=O)NC(C)C	-1%
COc1ccc(-c2cc(N)n(S(=O)(=O)Cc3ccccc3)n2)c(OC)c1	0%
CCC(C)NC(=O)c1ccccc1C(=O)NC(C)CC (stereo not drawn)	2%

(next part)
SMILES	HSD17B inhib
CCOC(=O)c1c(C)nc2ncccn12	25µM*
Cc1ccc(NC(=O)c2nnn(CC(=O)Nc3ccccc3)c2N)cc1C	-10%
Nc1nc(CSc2nc3ccccc3[nH]2)cs1	-11%
O=C1C2C3C=CC(C3=C3CCCCC3)C2C(=O)N1c1ccccc1 (stereo not drawn)	-21%
CC(C)c1nnc(NC(=O)CSc2nc3ccccc3s2)s1	-23%
Cc1ccc(N(Cc2cc(=O)[nH]c3ccccc23)C(=O)c2ccco2)cc1	-15%
COn1cnnc1-c1ccccc1	-1%
COC(=O)C1=C(C)OC(N)=C(C#N)C1C1CCCCC1 (stereo not drawn)	5%
COc1ccc(NC(=O)C2CCCN2C(=O)NC2CCCCC2)cc1OC (stereo not drawn)	5%
Cn1c(COc2ccc(Cl)cc2)nc2ccccc2c1=O	-28%
COc1ccc(C2CC(C(F)(F)F)n3nc(C(=O)Nc4ccc5c(c4)OCO5)cc3N2)cc1 (stereo not drawn)	-5%
CCC(C)NC(=O)C1CC(c2cccc(OC)c2)=NO1 (stereo not drawn)	18%
CCCCNC(=O)c1ccc(CS(=O)(=O)c2cccc(C(F)(F)F)c2)o1	1%
O=C(NNC(=O)c1ccncc1)c1ccncc1	2%[11.4 µM]
Cc1ccc(OCCNC(=O)c2ccco2)cc1C	8%
Nc1nc(N)nc(-c2ccccc2)n1	-7%
COc1ccc(N2CCN(C(=O)C(C)(C)Oc3ccc(Cl)cc3)CC2)cc1	-4%
Cc1occc1C(=O)N1CCN(c2ccc(Cl)c(Cl)c2)CC1	-27%
O=C(CSc1nnc(-c2ccccc2Cl)n1Cc1ccco1)Nc1ccc2c(c1)OCCO2	-4%
CC1CCN(Cc2nc3c(c(=O)n(C)c(=O)n3C)n2CCN2CCOCC2)CC1	4%
O=C(Cn1c(=O)oc2ccccc21)Nc1ccc(S(=O)(=O)N2CCCCC2)cc1	2%
COc1ccc(OCc2cccc(C(=O)O)c2)cc1	1%
CC(C)Cn1c(=O)c(C2=NS(=O)(=O)c3ccccc3N2)c(O)c2ccccc21	?
O=C(COc1ccc(-n2cnnn2)cc1)NC1CCCCC1	5%
COC(=O)N1CCC2(CC1)CN(C(=O)Nc1ccc(OC)cc1)C2	-1%

Next structures
SMILES	HSD17B inhib
N#Cc1ccc(Oc2cccnc2)cc1C#N	-12%
Nc1nc(Cl)c2ncn(C3OC(CO)C(O)C3O)c2n1 (stereo not drawn)	5%
O=C(Nc1cccc(F)c1)N1CC[C@@]2(CCCNC2)C1	-7%
CC1(C)S[C@@H]2[C@H](NC(=O)COc3ccccc3)C(=O)N2[C@H]1C(=O)O (tested in a mixture with another compound)	-2%[25.6 µM]
CCCc1cc(=O)[nH]c(SCC(=O)c2cc(C)n(C(C)COC)c2C)n1 (stereo not drawn)	-29%
Cc1ccc(C(=O)N2CCCC2)cc1S(=O)(=O)Nc1ccccc1	9%
CCOC(=O)C1CCN(CC(=O)Nc2c(C(=O)OC)n(C)c3cccc(C)c23)CC1	-1%
O=C(Nc1ccc(-c2cn3ccsc3n2)cc1)C1COc2ccccc2O1 (stereo not drawn)	14%
COc1cccc(OCc2nc3ccccc3[nH]2)c1	3%
CC1=C(C(=O)Nc2ccccc2C)C2(CCCC2)C(C(N)=O)C(=O)N1 (stereo not drawn)	-9%
CC(C)N(C)C1CCN(C(=O)Nc2ccc(Cl)cc2)CC1	1%
COc1ccccc1OCC(=O)N(Cc1nc(-c2ccccc2)no1)C1CCCCC1	-22%
CCOC(=O)N1CCC(c2[nH][nH]c(=O)c2C)CC1	-3%
C=CCn1c(=O)[nH]c2cc(C(=O)N3CCN(c4cc(C)ccc4C)CC3)ccc2c1=O	-14%
COc1ccc(-c2[nH]ncc2-c2cnn(-c3ccccc3)c2)c(O)c1	-7%
Cc1nnc(SCC(=O)NCC2CCCO2)n1-c1ccccc1 (stereo not drawn)	1%
Cc1c(C(=O)N2CCCCC2)oc2ccc(S(=O)(=O)N3CC(C)CC(C)C3)cc12 (stereo not drawn)	11%
Cc1ccc2oc(=O)c3cc(C(=O)N4CCN(C(=O)c5ccco5)CC4)sc3c2c1	-19%
O=C(c1cccc(F)c1)N1CCC2(CC1)CCN(c1ccccn1)CC2	?
COc1ccc(S(=O)(=O)Cc2ccc(C(=O)N3CCC(C(N)=O)CC3)o2)cc1	2%
COC(=O)c1cc(OC)c(OC)cc1NC(=O)c1ccco1	?
CCOc1c(CNCCNC(=O)c2nonc2N)cccc1OC	6%
O=C(Nc1ccccc1)c1cnc2n(c1=O)CCS2	-5%
O=C(NC1=NCCS1)c1ccc(Cl)s1	0%
COc1ccc(-c2noc(CSc3nnc(-c4ccncc4)n3-c3ccc(F)cc3)n2)cc1OC	-3%
Cc1cc(C)n(-c2cc(-c3ccccc3)nc(C)n2)n1	4%

Grouped by structure, those above with a furan ring, fused or not (15)
SMILES	HSD17B inhib
O=C(Nc1ccc2c(c1)oc1ccccc12)c1ccncc1	54%[activator]
COCCNC(=O)c1ccc(CS(=O)(=O)c2ccc(C)cc2)o1	-2%
Cc1ccc(-c2cc(C(=O)NCc3ccco3)no2)cc1	5%
Cc1ccc2c(c1)cc(C)c1nnc(SCC(=O)NCc3ccco3)n12	0%
N#Cc1nc(-c2cccs2)oc1NCc1ccco1	25µM*
O=S(=O)(NCc1ccccc1)c1ccc(S(=O)(=O)N(Cc2ccccn2)Cc2ccco2)cc1	2%
Cc1ccc(N(Cc2cc(=O)[nH]c3ccccc23)C(=O)c2ccco2)cc1	-15%
CCCCNC(=O)c1ccc(CS(=O)(=O)c2cccc(C(F)(F)F)c2)o1	1%
Cc1ccc(OCCNC(=O)c2ccco2)cc1C	8%
Cc1occc1C(=O)N1CCN(c2ccc(Cl)c(Cl)c2)CC1	-27%
O=C(CSc1nnc(-c2ccccc2Cl)n1Cc1ccco1)Nc1ccc2c(c1)OCCO2	-4%
Cc1c(C(=O)N2CCCCC2)oc2ccc(S(=O)(=O)N3CC(C)CC(C)C3)cc12 (stereo not drawn)	11%
Cc1ccc2oc(=O)c3cc(C(=O)N4CCN(C(=O)c5ccco5)CC4)sc3c2c1	-19%
COc1ccc(S(=O)(=O)Cc2ccc(C(=O)N3CCC(C(N)=O)CC3)o2)cc1	2%
COC(=O)c1cc(OC)c(OC)cc1NC(=O)c1ccco1	?
